Screening data (PubChem BioAssay)
MLL AF4-AF9 inh: MLL-AF4/AF9 protein interaction inhibition | P42568 | AlphaScreen, biotin-AF4 peptide binding to FLAG-AF9 | inhibition, % at 10 µM | hit rate 0.47% among 350,000;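 active = every replicate reaching a set inhibition limit, whatever the replicate mean, cut at about 25% in these data; inconclusive = mean inhibition reaches that limit but some replicates miss it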;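 note: 0% = plate neutral control median and 100% = total signal loss; the record names both 10 and 1 µM as test concentration; the first replicate is given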
rRNA inh HTS: inhibitors of bacterial rRNA selective over humanized ribosomes; E. coli WT GFP vs humanized-ribosome RFP mutants, fluorescence, 24 h; hits give low values; DMSO median 0, no signal -100; GFP signal change (wild-type ribosome), % (concentration not given with the values); hit rate 1.6% among 350,000;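 active = significant combined selectivity score with lowered wild-type GFP, culture density cut under 30%, mutant RFP and density less affected; inactive = any of these conditions unmet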; note: one replicate is shown; some compounds called inactive have numbers as strong as hits
Vif TR-FRET: inhibitors of Vif binding to APOBEC3G peptide, primary screen, biochemical, TR-FRET, GST-Vif 1-94, biotin-A3G peptide, dose response retest (AID 1117319); TR-FRET GST-Vif / biotin-A3G peptide binding; higher % means a stronger effect; test concentration not given here; strong numbers were not always called active; inhibition, %; hits with a dose series show IC50 in µM; hit rate 0.57% among 260,000;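 active = above the screen mean plus three standard deviations and confirmed in dose response; inconclusive = results disagree or hit not tested in dose response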;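 note: Vif residues 1-94 fused to GST binding biotinylated APOBEC3G peptide 110-148; 0% = full assay without inhibitor and 100% = GST in place of GST-Vif; retest series ran down from 100 µM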
HNF4A DNA FP: change in binding of human HNF4 alpha to DNA. P41235. HNF4a-FITC DNA binding, fluorescence polarization, 1 h. activity change, % at 10 µM. hit rate 0.3% among 360,000; in the data active = activity change above about 30%, passing the limit was not always enough;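 note: controls were the assay level and a saturating level of protein; the project sought stronger binding though the title names inhibitors; some compounds called inactive have numbers as strong as hits; positive values seem to mean higher polarization but the record does not say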
Target sequence (P41235 whole entry, looked up): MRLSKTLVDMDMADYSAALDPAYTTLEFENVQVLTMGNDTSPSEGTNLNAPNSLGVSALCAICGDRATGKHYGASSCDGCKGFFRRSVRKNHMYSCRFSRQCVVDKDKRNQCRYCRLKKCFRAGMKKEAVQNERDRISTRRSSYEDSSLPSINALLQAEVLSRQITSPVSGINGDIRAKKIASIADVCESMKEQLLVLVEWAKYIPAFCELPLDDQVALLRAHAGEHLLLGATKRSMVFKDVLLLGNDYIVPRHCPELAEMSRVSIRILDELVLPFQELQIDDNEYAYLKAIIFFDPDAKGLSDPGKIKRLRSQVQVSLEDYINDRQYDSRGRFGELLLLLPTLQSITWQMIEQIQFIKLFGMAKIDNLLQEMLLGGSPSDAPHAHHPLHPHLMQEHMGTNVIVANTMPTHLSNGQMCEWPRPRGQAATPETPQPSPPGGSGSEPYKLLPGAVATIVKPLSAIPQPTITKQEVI
E coli growth: E. coli growth inhibition; AID 1053175; Escherichia coli growth, OD600, 23 h; hits give low values; OD600 absorbance (no concentration beside the values); hit rate 0.21% among 330,000;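 active = OD600 absorbance below the run mean of sample wells minus 3.6 SD, in any replicate, cut at about 0.56 in these data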;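 note: stock transfer was 300 nL into about 60 µL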
FGF22 binding: binders of recombinant human FGF22 by thermal shift; SYPRO orange fluorescence; percent of sucrose octasulfate shift, DMSO zero; calls only at 9.99 µM; hit rate 1.5% among 340,000; AID 651658;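 active = melting point raised past a set limit in the mean and every replicate; inconclusive = no clear call; three in four hits are not shown here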
Target sequence (Q9HCT0 whole entry, looked up): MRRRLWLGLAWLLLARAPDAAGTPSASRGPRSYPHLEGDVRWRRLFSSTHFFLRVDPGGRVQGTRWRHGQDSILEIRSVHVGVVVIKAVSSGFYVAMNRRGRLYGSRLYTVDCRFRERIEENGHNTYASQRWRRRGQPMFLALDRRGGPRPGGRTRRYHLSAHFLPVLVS
ALR inh: blocks human ALR sulfhydryl oxidase activity. hit rate 3.8% among 290,000. purified ALR, DTT oxidation, H2O2 HRP-luminol luminescence. inhibition, % (no concentration beside the values). AID 485317. P55789;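 active = mean and each replicate at 75% or more; inconclusive = only one of the two met; inactive = neither met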;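 note: stock transfer was 7.5 nL into about 7.5 µL; 0% = neutral wells and 100% = wells with inactivated enzyme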
Target sequence (P55789 whole entry, looked up): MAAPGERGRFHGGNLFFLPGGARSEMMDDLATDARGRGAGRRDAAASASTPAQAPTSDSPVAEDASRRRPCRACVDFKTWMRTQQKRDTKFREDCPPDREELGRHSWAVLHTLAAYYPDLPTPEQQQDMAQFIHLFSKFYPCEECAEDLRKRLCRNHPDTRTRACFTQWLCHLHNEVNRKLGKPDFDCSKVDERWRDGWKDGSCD
rRNA inh HTS OD600: further read-out of rRNA inh HTS, marked with its call; OD600 change, %; measured here: OD600 growth;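 optical density of the mix in the first replicate; 0 = DMSO median and -100 = no signal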
rRNA inh HTS RFP: further read-out of rRNA inh HTS, marked with its call; RFP signal change, %; measured here: RFP humanized mutant strains;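 first replicate; 0 = DMSO median and -100 = no signal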
The depositor's hits bear a star; i = inactive; u = inconclusive; x = no result given; ! = not active in a repeat. Not all compounds are listed, so the mix of outcomes need not match the whole.

entry | mol | E coli growth | rRNA inh HTS OD600 | FGF22 binding | ALR inh | rRNA inh HTS | MLL AF4-AF9 inh | HNF4A DNA FP | Vif TR-FRET | rRNA inh HTS RFP
1 | COc1cccc(OC)c1CNC(=O)C1CCC(=O)N(CC2CCCCC2)C1 (configuration not stated) | 0.7 | 4 | i | -4 | 5 | 0.8 | 3.4 | x | 0.3
2 | OCCC1CN(Cc2nc3ccc(F)cc3[nH]2)CCN1C1CCCC1 (configuration not stated) | 0.69 | 4 | i | 2 | 9 | 4.0 | 1.9 | 15% | -3.4
3 | CCc1ccc(NC(=O)N(CCN2CCOCC2)Cc2ccc3c(c2)CCCN3CC)cc1 | 0.73 | x | x | 99* | x | x | -0.5 | 88µM*! | x
4 | CC(C)CC(N)c1csc(NC(=O)Nc2ccccc2C(C)(C)C)n1 (configuration not stated) | x | -38 | i | x | -12 | 10 | 2.0 | x | 7.2
5 | O=C(c1ccc2c(c1)OCO2)N1CCN(CCN2C(=O)c3cccc4cccc(c34)C2=O)CC1 | 0.68 | 5 | i | x | 14 | -14 | -5.2 | x | 2.6
6 | CCCCOc1ccc(C2C(C(=O)c3ccc(C)o3)=C(O)C(=O)N2CC2CCCO2)cc1 (configuration not stated) | 0.69 | x | i | 4 | x | -1.1 | 1.9 | 13% | x
7 | CC(C)Oc1ccccc1/C=N/n1nnnc1N | x | -13 | i | -2 | -5 | -0.7 | 0.8 | x | 0.1
8 | O=C(Cn1nnc2ccccc2c1=O)Nc1cccc(S(=O)(=O)N2CCOCC2)c1 | 0.67 | -16 | x | 0 | -17 | 4.9 | -1.1 | 13% | -3.0
9 | C/C(N)=C(/C#N)C(=O)CSc1cc(Cl)ccc1Cl | 0.7 | x | x | -16 | x | x | 1.4 | 1% | x
10 | O=C(Cc1cccc2ccccc12)Nc1nnc(-c2cccc([N+](=O)[O-])c2)s1 | 0.78 | 15 | i | -21 | 8 | -2.3 | -1.9 | x | -7.0
11 | O=C(O)c1cc([N+](=O)[O-])ccc1NCc1ccccc1 | 0.69 | -14* | i | 17 | -25* | -1.8 | 2.4 | x | 0.3*
12 | CC(=O)c1ccc(S(=O)(=O)NCC(=O)N2CCN(C/C=C/c3ccccc3)CC2)cc1 | 0.68 | 1 | i | -6 | 7 | 2.2 | 5.0 | -4% | 2.7
13 | CC1CCC(NCC(=O)Nc2cccc(S(N)(=O)=O)c2)CC1 (configuration not stated) | 0.72 | 5 | i | -2 | 14 | -2.2 | -1.3 | x | -1.3
14 | C[C@@H]1CCCCO[C@@H](CN(C)Cc2ccc(C(=O)Nc3ccccc3N)cc2)[C@@H](C)CN([C@H](C)CO)C(=O)c2cc(NC(=O)Nc3ccc(F)cc3)ccc2O1 | x | 3 | i | x | 0 | -0.6 | x | x | -2.4
15 | O=C(CCC(=O)Nc1ccccc1Cl)N/N=C1\CCCc2ccccc21 | x | x | i | 6 | x | -4.7 | -3.0 | x | x
16 | Cc1ccc(NC(=O)CCCN2C(=S)NC(C)(C)CC2C)cc1 (configuration not stated) | 0.72 | -6 | i | -5 | 6 | -0.8 | 1.5 | -1% | 7.0
17 | CC(=O)c1cc(C#N)c(SCCC(C)C)nc1C | 0.65 | -24 | i | 1 | -14 | -0.9 | -0.1 | 29% | -11
18 | O=C(Cc1ccncc1)NCC[C@@H]1CC[C@@H](NC(=O)Nc2cccc(F)c2)[C@@H](CO)O1 | x | 1 | i | x | -2 | 0.9 | x | x | -1.6
19 | CCCOc1ccccc1C1CC(=O)NC(C)=C1C(=O)OCC(C)C (configuration not stated) | 0.73 | x | x | 20 | x | x | 2.3 | 1% | x
20 | COc1ccccc1Nc1nc(NCCCCO)nc(N2CCCC2)n1 | 0.66 | -5 | i | 18 | -3 | -19 | 2.0 | x | 1.5
21 | CN(Cc1ccccn1)C(=O)C1CCC(=O)N(CCc2ccc(Cl)cc2)C1 (configuration not stated) | 0.68 | 17 | i | -3 | 15 | -10.0 | -4.1 | x | 0.4
22 | O=S(=O)(Nc1ccc(S(=O)(=O)Nc2cccc3ccccc23)cc1)c1ccccc1 | 0.68 | x | x | 23 | x | x | 1.1 | 7% | x
23 | O=Cc1ccc2ccc3cccnc3c2n1 | 0.68 | 6 | i | 0 | 13 | -2.8 | -0.6 | 8% | -0.3
24 | NC(=S)NN=C1CCCC(C(F)(F)F)C1 (configuration not stated) | x | 14 | i | x | 7 | -2.0 | -0.9 | x | 0.6
25 | CC(=O)N1CCN(Cc2cc(=O)oc3cc(C)cc(C)c23)CC1 | x | -14 | i | x | -9 | -4.7 | -4.5 | x | -2.5
26 | O=C(Nc1ccc(SC(F)F)cc1)c1ccc2c(=O)n3c(nc2c1)CCC3 | 0.7 | 9 | i | 0 | 10 | -3.3 | -4.0 | -21% | -2.3
27 | O=C(NCc1ccc(F)cc1)c1cc(C2CCCCN2S(=O)(=O)c2cccc3cccnc23)on1 (configuration not stated) | x | -3 | i | x | -1 | -8.6 | 5.3 | x | 3.9
28 | CCOc1cc(/C=N/Nc2nc(-c3cccs3)c(NC(C)=O)s2)ccc1O | x | -1 | i | 95* | 6 | 11 | 8.4 | 1% | 1.8
29 | Cc1ccccc1-c1ccc([C@H]2[C@@H](CO)N3CCCCN(C(=O)Nc4ccccc4)C[C@@H]23)cc1 | x | -38 | i | x | -2 | -6.9 | x | x | 16
30 | Cc1ccc2c(cnn2C(=O)CCCC(=O)NCc2ccc(Cl)cc2)c1 | 0.68 | 7 | i | -4 | 9 | -3.2 | 3.7 | x | -1.3
31 | CCNC1CCC(Nc2ccnc3cc(Cl)ccc23)CC1 (configuration not stated) | 0.65 | 13 | i | x | 10 | -9.8 | 0.2 | -4% | 1.4
32 | O=C(Nc1cccc(C(=O)O)c1)/C(=C\c1ccccc1)NC(=O)c1ccccc1 | x | -35 | i | -2 | -26 | -1.6 | -1.4 | x | 2.4
33 | CCc1ccccc1NC(=O)C1CCCN(S(=O)(=O)c2ccc3c(c2)CC(C)N3C(C)=O)C1 (configuration not stated) | 0.75 | -11 | i | x | -8 | -15 | 2.4 | x | -3.9
34 | O=C(CCC1CCCN(Cc2ccc3c(c2)OCCO3)C1)NCc1ccc(F)c(F)c1 (configuration not stated) | 0.68 | 1 | i | -7 | 12 | 1.6 | 6.1 | 4% | 1.4
35 | COc1cccc(-c2cc(-c3cccnc3)nc(N)c2C#N)c1 | 0.67 | -1 | i | x | 17 | -2.4 | -6.9 | -11% | 7.4
36 | Cc1ccc(NC(=O)COC(=O)C2CC2)cc1S(=O)(=O)N1CCOCC1 | 0.69 | 3 | i | 3 | 4 | 3.9 | 0.7 | x | 0.4
37 | COc1ccc(CNCC(C)NCc2ccc(OC)c(OC)c2)cc1OC (configuration not stated) | 0.7 | -1 | i | -6 | 4 | 0.2 | 1.4 | -3% | -1.2
38 | CN(C)S(=O)(=O)c1cccc(-c2csc(=Nc3ccccc3)n2CCCN2CCOCC2)c1 | 0.72 | -12 | i | 10 | -5 | 32* | -2.0 | 10% | 2.3
39 | O=C(c1sc2cccc(Cl)c2c1Cl)N1CCN(CCc2ccccn2)CC1 | 0.68 | -24 | i | -6 | -7 | -1.4 | 5.0 | -4% | 9.0
40 | N#Cc1ccccc1S(=O)(=O)N1CCN(C(=O)CN2CCCC2c2cccs2)CC1 (configuration not stated) | 0.71 | 1 | i | 2 | 7 | -0.9 | 5.8 | 75% | 1.1
41 | CCCCN(Cc1ccccc1)C(=O)c1cnc2n(c1=O)CCS2 | 0.72 | x | x | -6 | x | x | -1.1 | u | x
42 | COc1ccc2c3c([nH]c2c1)[C@@H](CO)NCC31CN(S(=O)(=O)c2ccccc2)C1 | x | -2 | i | x | -3 | 5.3 | x | x | -0.4
43 | CSc1sc(C)cc1/C=N/O | x | x | x | -8 | x | x | -1.0 | 22% | x
44 | CCc1c(C)c2c(C)nn(-c3ccccc3)c2oc1=O | 0.71 | x | x | 5 | x | x | -0.4 | 2% | x
45 | CNS(=O)(=O)c1ccc(N=Cc2c(C)[nH]n(-c3ccc(C)cc3C)c2=O)cc1 | 0.67 | 10 | i | 3 | 8 | -1.8 | 0.6 | 20% | 0.3
46 | CCCC(=O)N1CC2(C1)CN(C(=O)CN1CCOCC1)[C@@H](CO)c1c2c2ccc(OC)cc2n1C | x | 11 | i | x | 5 | -0.4 | x | x | -3.3
47 | O=C(CSc1n[nH]c(=O)[nH]c1=O)c1ccc(Cl)cc1Cl | 0.67 | 0 | i | 11 | -4 | 0.4 | 5.0 | -9% | -0.6
48 | O=C(N[C@@H]1CC[C@@H](CC(=O)N2CCOCC2)O[C@H]1CO)c1cccc(F)c1 | x | 10 | i | x | 2 | -1.7 | x | x | -1.9
49 | CC(=O)c1ccc(OCc2ccc(Oc3c(Cl)cccc3[N+](=O)[O-])cc2)cc1 | 0.69 | 14 | i | 12 | 16 | -1.2 | 3.0 | -7% | 5.0
50 | CCCCCCCNC(=O)C1(CC2CC(c3cccc(Br)c3)=NO2)CCN(C(=O)CCCCCBr)CC1 (configuration not stated) | x | -5.5* | i | -75 | -20* | -0.5 | -0.7 | x | 7.6*
51 | Cc1ccc(S(=O)(=O)Nc2cccc3c2O[C@@H](CN(C)Cc2ccc(C(F)(F)F)cc2)[C@H](C)CN([C@@H](C)CO)C3=O)cc1 | x | 7 | i | x | -1 | 4.9 | x | x | 2.4
52 | Cc1ccc2[nH]c(=O)c(CN(Cc3cccnc3)Cc3nnnn3CC3CCCO3)cc2c1 (configuration not stated) | 0.69 | 7 | i | x | 6 | -6.9 | -0.5 | x | -9.0
53 | CCN(C(=O)COC(=O)c1cnc(C)cn1)C1CCCCC1 | 0.7 | x | x | -26 | x | x | -1.6 | 7% | x
54 | CC(C)(C)OC(=O)N1CCC(Cc2cc(-c3ccccc3)no2)(C(=O)O)CC1 | 0.69 | 16 | i | 6 | 10 | 0.2 | 1.3 | x | -2.2
55 | COc1ccc(CC(=O)NC(=S)Nc2ccc(S(N)(=O)=O)cc2)cc1 | 0.66 | 2 | i | 12 | -4 | u | 0.0 | -5% | -5.0
56 | CSc1ccccc1OCc1cc(C(=O)N(C)CC2COCCO2)no1 (configuration not stated) | 0.71 | -3 | i | -1 | -5 | -0.9 | -1.4 | x | 2.8
57 | CC(=O)Nc1nnc(C2=COCCO2)o1 | 0.69 | 4 | i | 4 | 12 | -3.1 | 2.3 | 6% | -2.6
58 | COc1cc(OC)cc(C(=O)Nc2ccc(S(=O)(=O)Nc3cc(C)on3)cc2)c1 | 0.67 | x | x | x | x | x | -0.8 | 2% | x
59 | O=C(Nc1ccccc1F)c1csc(COCCO)n1 | x | 8 | i | x | 1 | 0.2 | -1.1 | x | -1.4

Profiles as entered above:
CC(C)(C)OC(=O)N1CCC(Cc2cc(-c3ccccc3)no2)(C(=O)O)CC1 as listed: E coli growth = 0.69; rRNA inh HTS OD600 = 16; FGF22 binding = i; ALR inh = 6; rRNA inh HTS = 10; MLL AF4-AF9 inh = 0.2; HNF4A DNA FP = 1.3; Vif TR-FRET = x; rRNA inh HTS RFP = -2.2
CCCCCCCNC(=O)C1(CC2CC(c3cccc(Br)c3)=NO2)CCN(C(=O)CCCCCBr)CC1 (configuration not stated) as listed: E coli growth = x; rRNA inh HTS OD600 = -5.5*; FGF22 binding = i; ALR inh = -75; rRNA inh HTS = -20*; MLL AF4-AF9 inh = -0.5; HNF4A DNA FP = -0.7; Vif TR-FRET = x; rRNA inh HTS RFP = 7.6*
